# MT1-MMP act inh: inhibitors of human MT1-MMP activation. HT1080 RFP-PRO-GFP cells, GFP/RFP ratio fluorescence, overnight; percent of plate control window, DMSO zero. actives 0.061% (n = 360,000). GFP/RFP ratio change, % at 20 µM. P50281. AID 651647;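 active means GFP/RFP ratio change of at least 30% with cell ATP level not reduced by more than half and red fluorescence within 50% of control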; further: strong numbers were not always called active
#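 Material – HT1080 RFP-PRO-GFP cells · Control set – DMSO wells and RFP-L50D-GFP cells · Incubation – overnight cell settling, then overnight compound exposure, 37 °C, 5% CO2 · Compound dosing – single-point 20 µM compound, 1% DMSO · Read-out – GFP/RFP fluorescence ratio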
# Env fusion inh: inhibitors of HIV Env-mediated cell fusion | HeLa-JRFL Env/CEM21 cell fusion, luciferase | inhibition, % at 12.3 µM | actives 1.1% (n = 360,000);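 active means mean replicate inhibition score of at least 50 and every replicate individually at or above 50; inconclusive means only one of the two criteria met; inactive means mean below 50 and not all replicates reaching 50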;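 further: 0% = plate neutral controls and 100% = maraviroc near 300 nM; one replicate is shown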
# Rce1 inh: yeast Ras-converting enzyme inhibition; Q03530; yeast membranes, quenched prenylated peptide cleavage fluorescence; AID 2563; calls only; actives 0.27% (n = 290,000);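 active means fall in fluorescence gain of 50% or more versus controls, with final raw signal at or below 3038400; inconclusive means same 50% fall but final raw signal above 3038400; inactive means fall in fluorescence gain under 50%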;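 further: plate controls were neutral control wells for no effect and wells lacking membranes for full effect; tested at 10 µM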
# Target sequence (Q03530 whole entry, looked up): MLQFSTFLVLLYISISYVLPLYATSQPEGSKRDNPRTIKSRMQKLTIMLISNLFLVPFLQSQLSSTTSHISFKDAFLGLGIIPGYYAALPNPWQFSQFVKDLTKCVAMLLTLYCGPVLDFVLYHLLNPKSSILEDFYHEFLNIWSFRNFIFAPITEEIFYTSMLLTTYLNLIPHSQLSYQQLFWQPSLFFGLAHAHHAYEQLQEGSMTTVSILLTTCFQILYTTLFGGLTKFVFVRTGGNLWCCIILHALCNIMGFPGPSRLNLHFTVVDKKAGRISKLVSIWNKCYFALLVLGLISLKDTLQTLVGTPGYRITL
# UUG fidelity: modulators of start codon recognition fidelity in yeast | S. cerevisiae UUG-firefly luciferase reporter, luminescence/redox ratio | activity score, % at 18.7 µM | actives 0.13% (n = 350,000) | AID 602363;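 active means replicate mean at a twofold rise or more, about +100% in these data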;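 further: firefly luciferase made from a UUG start codon reports start codon fidelity; reporter light over untreated wells divided by growth signal over untreated wells; some hits fall short of that in this replicate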
# CSC inhib: cancer stem cell inhibition. inhibition, % at 7.5 µM. AID 2717. cancer stem cell-like cells viability, luminescence. actives 1.1% (n = 300,000);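 active means mean at 75% or more and at least half the replicates too; inconclusive means mean and replicates disagree; tested in HMLE shEcad cells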;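 further: 0% = median of negative and 100% = median of positive control wells; the first replicate is given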
# eIF4H FP inh: inhibitors of RNA binding by human eIF4H. eIF4H fluorescence polarization binding assay. Q15056. actives 0.94% (n = 290,000). inhibition, % at 35 µM;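 active means 50% or more with normal probe brightness, or confirmed in later tests; inconclusive means above 50% with abnormal brightness, or retests that disagree; inactive means below 50% or failed in later tests; about a fifth of its hits are not listed in these tables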;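 further: calls also rest on retests at 20 µM and on dose response follow-up; 0% = protein and probe with vehicle and 100% = probe without protein; strong numbers were not always called active; many hits fall short of the cut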
# PABP FP inh: PABP-poly(A) binding inhibition | P11940 | PABP-poly(A) RNA binding, fluorescence polarization | inhibition, % at 35 µM | actives 1% (n = 290,000);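 active means 50% or more with normal probe brightness, or confirmed in later tests; inconclusive means above 50% with abnormal brightness, or retests that disagree; inactive means below 50% or failed in later tests; about a fifth of its hits are not listed in these tables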;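 further: calls also rest on retests at 20 µM and on dose response follow-up; controls were probe without protein and protein plus probe with vehicle; some compounds called inactive have numbers as strong as hits; many hits fall short of the cut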
# Target sequence (P11940 whole entry, looked up): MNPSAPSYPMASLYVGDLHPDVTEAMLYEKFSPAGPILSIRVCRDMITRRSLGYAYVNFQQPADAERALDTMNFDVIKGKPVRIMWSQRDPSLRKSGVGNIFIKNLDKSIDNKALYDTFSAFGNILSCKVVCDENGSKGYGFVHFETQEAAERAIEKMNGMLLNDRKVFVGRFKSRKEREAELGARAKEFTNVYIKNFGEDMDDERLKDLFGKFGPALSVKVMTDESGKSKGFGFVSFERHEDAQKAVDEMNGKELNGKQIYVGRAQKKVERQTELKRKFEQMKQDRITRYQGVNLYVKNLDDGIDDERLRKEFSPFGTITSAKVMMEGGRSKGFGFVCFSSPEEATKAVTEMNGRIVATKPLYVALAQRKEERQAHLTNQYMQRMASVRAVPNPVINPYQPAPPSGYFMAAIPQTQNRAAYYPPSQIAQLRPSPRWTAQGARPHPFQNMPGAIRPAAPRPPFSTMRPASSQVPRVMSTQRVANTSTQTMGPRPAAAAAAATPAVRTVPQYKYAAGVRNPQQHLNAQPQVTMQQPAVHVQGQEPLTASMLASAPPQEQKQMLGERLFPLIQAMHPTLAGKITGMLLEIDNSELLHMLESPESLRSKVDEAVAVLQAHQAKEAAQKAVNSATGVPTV
# MT1-MMP act inh RFP: recorded beside MT1-MMP act inh, whose call it bears; RFP signal change, %; measured here: RFP expression control read;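 0 = vehicle wells; hits needed this value within 50% of zero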
# * = called active by the depositor; i = inactive; ? = inconclusive; . = not tested or not shown.
mol	CSC inhib	PABP FP inh	MT1-MMP act inh	eIF4H FP inh	Rce1 inh	UUG fidelity	MT1-MMP act inh RFP	Env fusion inh
Cc1ccc(S(=O)(=O)C(C#N)c2nc3ccccc3nc2N2CCN(C)CC2)cc1 (centres undefined)	-12	8	-26	?	i	.	-10	-66
CCc1cc(C(=O)Nc2cc(S(=O)(=O)N3CCOCC3)ccc2N2CCN(CC)CC2)sc1C	.	.	1	.	.	-6	-1	-14
CCCCSc1nnc(CCNC(=O)OC(C)(C)C)o1	-4	-9	3	-5	i	0	-2	6
COc1ccc(C2CC(c3ccccc3)=NN2S(=O)(=O)c2ccc(C)cc2)c(OC)c1 (centres undefined)	8	4	-5	9	i	.	-5	.
Cc1ccc(S(=O)(=O)N(C)CC(=O)N2CCC(C(N)=O)CC2)cc1	.	5	1	-4	i	-18	4	-6
CC(=O)CC(C)(C)Nc1nc2ccc([N+](=O)[O-])cc2o1	12	9	8	0	i	.	-5	-3
CC(=O)Nc1cccc(OC(=O)N2CCOCC2)c1	-4	-6	1	2	i	-5	12	.
CCN(CC(=O)Nc1ccc(OC)cc1)C(=O)c1ccc([N+](=O)[O-])cc1	-5	-4	-4	0	i	-12	0	16
Cn1c(=O)cc(OCCCC(=O)N2CCN(Cc3ccc4c(c3)OCO4)CC2)c2ccccc21	0	-3	9	-11	i	-5	4	-100
Cc1cc(C)cc(NS(=O)(=O)c2c(C(=O)N3CCCCCC3)c(C)n(C)c2C)c1	6	1	-3	0	i	16	0	0
CC(=O)Nc1ccc(N/C=C/C(=O)c2ccccc2)cc1	1	-9	5	14	i	-28	-3	-31
Cc1ccc(C(=O)OCC(=O)Nc2c(C)n(C)n(-c3ccccc3)c2=O)cc1[N+](=O)[O-]	-9	0	2	-4	i	.	1	3
O=C(Nc1ccc(-c2nc3ncccc3o2)cc1)c1ccc([N+](=O)[O-])o1	47	2	4	-7	i	-15	-11	i
Cc1ccc(C(=O)NCc2ccc3c(c2)OCO3)cc1Cl	-20	5	2	2	i	-23	-5	-5
Cc1nnsc1C(=O)NC1CCCc2c1cnn2-c1ccc(C(C)(C)C)cc1 (centres undefined)	31	-10	9	-7	i	-2	-29	49
CCOC(=O)C1=C[C@@H](C(C)(C)C)N(S(=O)(=O)c2ccc(C)cc2)[C@H]1c1cccc2ccccc12	.	.	-6	.	.	16	-16	20
O=C(COC(=O)c1c[nH]c(=O)[nH]c1=O)Nc1ccccc1	-5	3	4	-2	i	.	4	-18
CCCc1cc2c(cc1NC(=O)Cc1ccccc1)OCO2	.	.	-2	.	.	-15	-3	-1
CCCNC(=O)Cc1c(C)oc2ccccc12	-6	-1	-3	13	i	.	-4	6
COc1cccc(CNc2ccc3c(c2)nc(C)n3C)c1OC	-11	-4	5	11	i	-14	2	-8
COc1ccc(NC(=O)Cn2c(=O)n(CC(=O)NCc3ccco3)c(=O)c3ccccc32)cc1OC	-5	-1	5	-10	i	0	1	-7
CC(C)CNC(=O)CCCSc1nc2ccccc2[nH]1	-7	27	1	12	i	.	-4	-1
CC(=O)NC(=S)Nc1ccc([N+](=O)[O-])cc1C	5	0	2	-4	.	.	3	-36
Cc1cc(C)nc(NC(=O)c2ccc(Cl)c(Cl)c2)n1	-7	-5	-3	-1	i	-10	4	.
Cc1ccc(S(=O)(=O)NCC(=O)OC(C)C(=O)Nc2ncc(Cl)cc2Cl)cc1 (centres undefined)	-3	-2	4	1	i	-1	-2	-82
COc1ccc(Cl)cc1S(=O)(=O)NC(C)C(=O)NCc1cccnc1 (centres undefined)	-17	3	5	6	i	-11	5	8
CC(C)c1nnc2n1N=C(c1ccc(Cl)cc1)CS2	-16	7	2	-5	i	-18	-4	6
Cc1c(C(=O)N(CCC#N)c2ccccc2)sc2nc3n(c(=O)c12)CCCC3	-9	-8	-2	-6	i	-12	-1	3
CCOC(=O)c1c(C(C)(C)C)oc2ccc(O)cc12	43	-7	8	-6	.	.	-1	.
CCCN1C(=O)/C(=C/c2ccc(C)s2)SC1=Nc1ccc(OC)cc1	16	-4	-5	-7	i	-12	-5	.
CC(C)CNc1nc(Oc2ccc(=O)n(C)n2)nc(N2CCOCC2)n1	-9	8	6	6	i	.	7	.
Cc1ccc(-n2nnnc2SCC(=O)c2cc(C)n(-c3cc(C)on3)c2C)cc1	33	8	-3	-3	i	-21	-3	-6
Nc1nc(/C=C/c2cccnc2)nc(-c2ccccc2O)n1	21	-6	-16	-9	.	.	-7	32
O=C(NCCc1csc(-c2ccc(C(F)(F)F)cc2)n1)c1cccs1	30	7	0	-6	i	-12	-15	19
Cc1cc(C)n(C(N)=NC(=O)c2ccc([N+](=O)[O-])cc2)n1	6	3	-2	1	i	17	-3	-71
COc1ccc(S(=O)(=O)N2CCSCC2)cc1	-3	-8	-1	7	i	1	1	-16
Cc1ccc(NC(=O)c2ccccc2SCC(=O)N2CCCC2)cc1S(=O)(=O)N(C)C	-5	48	-2	4	i	1	1	23
CCOc1ccc(C(CC(=O)O)NC(=O)Cc2ccccc2)cc1OC (centres undefined)	-1	-8	-4	-12	i	5	-2	-17
CC(=O)c1cn(-c2ccc(Cl)cc2)c(=O)n(Cc2ccc(Br)cc2)c1=O	10	-4	-3	-7	i	.	-1	-23
Cc1ccc(-c2nnn(CC(=O)N(CC(=O)NC3CCCC3)c3ccc(F)c(Cl)c3)n2)o1	.	-9	13	-16	i	5	5	.
COc1ccccc1-c1cc(N)n(S(=O)(=O)c2ccc(F)c(C)c2)n1	-10	0	4	0	i	-7	-6	-11
Cc1[nH][nH]c(=O)c1N=Nc1ccccc1	-17	-6	13	-7	i	.	3	-25
Fc1ccccc1CN1CCCC(NC2CCC2)C1 (centres undefined)	-3	8	-2	3	i	-23	-1	4
COCCNC(=O)C1CCCN(C(=O)c2ccc3c(c2)C(C)(C)CCC3(C)C)CC1 (centres undefined)	.	.	3	.	.	-14	1	-55
O=C(Nc1ccc(F)cc1F)NC1CCCc2ccccc21 (centres undefined)	-14	1	-5	-1	i	5	-4	8
COC(=O)CN1C(=O)CSc2ncccc21	-10	5	0	-4	i	-20	7	.
COc1cc(C(=S)N2CCCC2)ccc1O	-16	-7	3	2	i	-17	5	-85
COc1ccc([N+](=O)[O-])cc1NC(=O)C(C)OC(=O)Cc1ccc(OC)c(OC)c1 (centres undefined)	1	.	6	.	.	19	4	-4
O=C(Nc1ccc(Cl)cc1)OCc1cn(-c2ccc(Cl)cc2)nn1	7	2	1	-5	i	-3	3	-71
Cc1ccnc(NS(=O)(=O)c2ccc(NC(=O)Cc3ccccc3)cc2)n1	-3	4	-1	10	i	0	4	.
CCCS(=O)(=O)c1nc(S(=O)(=O)c2ccc(Cl)cc2)c(N2CCC(O)CC2)s1	16	-3	-4	-4	i	.	1	-40
CN1N=C(C(C)(C)C)CSC1=Nc1ccc(F)cc1	-8	-10	1	-4	.	.	1	1
COc1ccc(N(CC(=O)NC2CCCCC2C)S(=O)(=O)c2c(C)nn(C)c2C)cc1 (centres undefined)	-10	-7	4	-4	i	3	4	-41
O=C(COCc1ccccc1)N[C@@H]1c2ccccc2CC[C@@H]1OCc1ccccc1	.	.	-8	.	.	-3	-13	-3
CCOC(=O)N1CCN(S(=O)(=O)c2ccc(OCC)c(C)c2)CC1	-5	4	4	-5	i	0	-3	.
CCOC(=O)C1(CCCc2ccccc2)CCN(C2CCN(C(C)=O)CC2)CC1	30	13	-2	-8	i	-13	-2	11
Fc1cccc(Cl)c1CSc1nnc2ccccn12	-6	-6	-2	-5	i	.	5	-18
CC(C)CC(=O)Nc1ccc(C(=O)CN2CCC(C)CC2)cc1	-2	2	0	6	i	.	5	7
O=C(NCC1CC1)c1cccc2c1C(=O)c1ccc(N3CCCC3)cc1S2(=O)=O	.	.	-80	.	.	-6	5	4
O=[N+]([O-])c1ccc(Nc2ccc(F)cc2)nc1	-5	-10	4	-6	i	.	2	8

# Further records follow:
mol	CSC inhib	PABP FP inh	MT1-MMP act inh	eIF4H FP inh	Rce1 inh	UUG fidelity	MT1-MMP act inh RFP	Env fusion inh
Cc1nc2ccc(Cc3ccc4nc(C)[nH]c4c3)cc2[nH]1	13	-1	0	-6	i	-20	-2	.
Cc1ccc(CCNS(=O)(=O)c2ccc3c(c2)N(C)CCO3)cc1	1	.	-3	.	i	20	-2	6
O=C(N/N=C/c1cccc(O)c1)c1ccc(NC(=O)C2CCCCC2)cc1	11	6	4	3	i	-3	3	-5
c1ccc(-c2nc3c4ccccc4ccn3c2CN2CCOCC2)cc1	-17	12	-10	8	i	-13	-3	-6
Nc1ccc(C(=O)OCC(=O)N2CCc3ccccc3C2)cc1[N+](=O)[O-]	0	4	5	-7	i	-8	4	7
CCn1c(Cc2ccccc2)nnc1SCC(=O)Nc1ccc2c(c1)OCCO2	-11	-4	11	-2	i	-23	5	.
CCOc1ccc(C(=O)NCC(=O)NCCCSc2ccccc2)cc1OCC	2	-1	0	-4	.	-5	2	-216
Cc1ccc(N(C(=O)c2snc(C(N)=O)c2N)C(C(=O)NCC2CCCO2)c2ccc(C)o2)c(C)c1 (centres undefined)	11	6	-5	-3	i	-3	-6	2
CCOC(=O)c1cccc(NC(=O)CSc2nnc(-c3cccnc3)n2CC)c1	11	5	-2	-6	i	-14	0	-31
Cc1ccccc1N1CCN(C(=S)c2ccc(-c3ccc([N+](=O)[O-])cc3)o2)CC1	16	25	4	1	i	.	-2	9
COc1ccc2c(C)c(C(=O)N3CC[C@@H](N4CCC(O)CC4)[C@H](O)C3)oc2c1	4	-7	0	-3	i	-13	7	-13
O=C(CSc1ncnc2sc3c(c12)CCCC3)N1CCC(c2noc3ccc(F)cc23)CC1	22	7	1	-3	i	-20	-4	.
O=C1NC(Cc2ccccc2)C(=O)Nc2ccc(Br)cc21 (centres undefined)	-6	4	-3	-2	i	8	-1	-5
C/C(=N\NS(=O)(=O)c1cccc([N+](=O)[O-])c1)c1cc2ccccc2o1	-8	1	-3	-12	i	-13	0	8
COc1ccc(-c2cc(C(=O)N3CC4(C)CC3CC(C)(C)C4)no2)cc1 (centres undefined)	?	8	-11	-3	i	3	-9	29
CC(C)(Oc1ccc(Cl)cc1)C(=O)NC1CCN(Cc2ccccc2)CC1	20	.	2	.	i	-3	-2	-1
CN(C)S(=O)(=O)c1cccc(C(=O)OCC(=O)c2ccc3c(c2)NC(=O)CO3)c1	2	-6	2	6	i	0	-1	.
C=CCOc1ccc2ccccc2c1/C=N/O	-3	-10	2	3	i	.	-3	.

# Bioassay records deposited in PubChem BioAssay by several laboratories.

# The list is partial. The share of hits here may be higher or lower than overall.
